Beta2AR agonist: agonists of human beta-2 adrenergic receptor inducing internalization; P07550; Am2.2-beta2AR cells, FAP receptor internalization, flow cytometry; reference of the scale not given here; response, % (no concentration beside the values); hit rate 0.43% among 340,000;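 active means response above a set limit, near 3 SD of response in nonfluorescent compounds, cut at about 42% in these data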;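 further: stock transfer was 100 nL into about 11 µL; a reference agonist was the positive control; negative values mostly stem from fluorescent compounds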
Target sequence (P07550 whole entry, looked up): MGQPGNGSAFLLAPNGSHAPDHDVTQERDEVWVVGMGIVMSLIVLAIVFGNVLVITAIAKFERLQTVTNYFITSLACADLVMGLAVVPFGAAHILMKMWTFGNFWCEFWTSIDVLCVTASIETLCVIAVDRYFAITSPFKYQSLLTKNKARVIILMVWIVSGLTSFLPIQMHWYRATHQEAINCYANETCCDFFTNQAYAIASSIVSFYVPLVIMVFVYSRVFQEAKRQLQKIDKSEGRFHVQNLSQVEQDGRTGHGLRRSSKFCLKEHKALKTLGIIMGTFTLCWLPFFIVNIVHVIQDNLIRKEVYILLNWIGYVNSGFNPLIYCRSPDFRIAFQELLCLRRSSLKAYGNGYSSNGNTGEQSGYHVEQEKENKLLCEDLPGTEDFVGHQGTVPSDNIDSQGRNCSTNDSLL
Calb FLC: affects C. albicans growth with fluconazole. C. albicans CaCi-2 (fluconazole-resistant clinical isolate) + fluconazole, Alamar Blue growth, 48 h. growth inhibition, % (no concentration beside the values). hit rate 0.57% among 300,000;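 active means most replicates above 75%; inconclusive means exactly half above 75%; inactive means most below 75%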;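 further: all wells also contain fluconazole at 8 µg/ml as a sub-toxic cotreatment; 0% = median of DMSO wells and 100% = median of geldanamycin control wells; wells of about 8 µL received 7.5 nL stock; the first replicate is given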
Ecoli rRNA inh: inhibitors of bacterial rRNA selective over humanized ribosomes. E. coli WT GFP vs humanized-ribosome RFP mutants, fluorescence, 24 h; hits give low values; DMSO median 0, no signal -100. GFP signal change (wild-type ribosome), % (test concentration not listed). hit rate 1.6% among 350,000. AID 720706;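 active means significant combined selectivity score with lowered wild-type GFP, culture density cut under 30%, mutant RFP and density less affected; inactive means any of these conditions unmet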; further: one replicate is shown; some compounds called inactive have numbers as strong as hits
Beta cell apopt: beta cell apoptosis inhibition; AID 435005; hit rate 0.8% among 300,000; INS-1E cytokine-induced death, ATP luminescence, 48 h; percent of positive-control rescue, neutral wells zero; protection from apoptosis, % (no concentration beside the values);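 active means all replicates at 75% or more, or half of them and the mean; inconclusive means half reach 75% but not the mean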;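 further: 0% = cytokine-treated negative control wells and 100% = positive control rescue; higher means more ATP so stronger rescue from cytokine killing; wells of about 40 µL received 100 nL stock; the first replicate is given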
LANA-H2A inh: blocks KSHV LANA binding to histone H2A/H2B; Q9QR71; cell-free LANA-H2A/H2B peptide, fluorescence polarization; inhibition, % (concentration not given with the values); hit rate 0.6% among 320,000; AID 2629; in the data active means inhibition mostly above about 10%, no sharp cut-off; inactive means mostly below about 6.7%;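 further: stock transfer was 7.5 nL into about 10 µL; 0% = median of vehicle wells and 100% = median of positive control wells; one replicate is shown; the record names a cut of 25% in any replicate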
ALR H2O2 inh: human ALR oxidase inhibition via reduced H2O2; P55789; purified ALR, DTT oxidation, H2O2 HRP-luminol luminescence; inhibition, % (concentration not given with the values); hit rate 3.8% among 290,000; AID 485317;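 active means mean and each replicate at 75% or more; inconclusive means only one of the two met; inactive means neither met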;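 further: stock transfer was 7.5 nL into about 7.5 µL; 0% = neutral wells and 100% = wells with inactivated enzyme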
Target sequence (P55789 whole entry, looked up): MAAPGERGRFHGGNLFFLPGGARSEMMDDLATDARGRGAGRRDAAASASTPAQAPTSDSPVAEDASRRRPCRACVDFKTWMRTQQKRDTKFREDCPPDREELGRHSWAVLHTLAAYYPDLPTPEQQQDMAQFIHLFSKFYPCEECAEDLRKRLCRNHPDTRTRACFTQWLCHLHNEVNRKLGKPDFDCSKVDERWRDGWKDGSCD
T cruzi repl: blocks replication of Trypanosoma cruzi; T. cruzi beta-gal in NIH3T3, luminescence, 90 h; inhibition, % (test concentration not listed); hit rate 1.4% among 300,000;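 active means mean inhibition across valid replicates above about 55%, limit read from the data; inconclusive means mean below that limit but half or more replicates reach it; inactive means mean below it, under half of replicates reach it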;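 further: signal also drops with host cell toxicity which is not excluded here; 0% = plate median of DMSO wells and 100% = zero luminescence signal; higher percent means less beta-gal luminescence so fewer parasites; stock transfer was 50 nL into about 50 µL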
A1 inh: inhibitors of the anti-apoptotic protein A1, read as caspase activation; MEF A1-2A-BIM cells, Caspase-Glo 3/7 luminescence, 3 h; percent of clofoctol response, vehicle zero; hit rate 0.066% among 330,000; caspase activation, % (no concentration beside the values);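 active means over half of replicate activation scores above 10%, or exactly half above 10 with the replicate mean above 10; inconclusive means replicate mean below 10 yet half the replicates above 10; inactive means over half of replicates below 10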;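 further: wells of about 30 µL received 50 nL stock; many hits fall short of the cut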
Ecoli rRNA inh OD600: second read-out of Ecoli rRNA inh, no call of its own (marks repeat the call); OD600 change, %; measured here: OD600 growth;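 optical density of the mix in the first replicate; 0 = DMSO median and -100 = no signal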
Ecoli rRNA inh RFP: also measured in Ecoli rRNA inh; calls as there; RFP signal change, %; measured here: RFP humanized mutant strains;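 first replicate; 0 = DMSO median and -100 = no signal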
An asterisk follows results filed as active; ? = inconclusive; nt = no result given. An excerpt (hit frequency here may not be typical).

SMILES	Beta2AR agonist	Calb FLC	Ecoli rRNA inh	Ecoli rRNA inh OD600	Ecoli rRNA inh RFP	Beta cell apopt	LANA-H2A inh	ALR H2O2 inh	T cruzi repl	A1 inh
COC(=O)[C@H](Cc1ccccc1)NC(=O)[C@@H](N)CC(=O)OCc1ccccc1	2	nt	4	10	-5.3	-1	2.9	-4	nt	-1.2
N/C(=N\OC(=O)CCCc1ccccc1)c1ccc([N+](=O)[O-])cc1	9	13	nt	nt	nt	nt	-2.5	3	-4	0.0
Oc1ccc(Br)cc1C=Nc1cccn2cc(-c3ccccc3)nc12	-6	-10	12	5	0.6	2	-4.9	31	-4	-0.4
Clc1ccc(Cn2cc(Br)cn2)cc1Cl	2	-7	-12	-16	1.4	-8	1.7	-3	12	0.2
CCCSc1nc(-n2ncc(C#N)c2N)c2c3c(sc2n1)CCC(C)C3 (stereo unspecified)	0	16	7	15	8.9	19	-1.9	0	47	-0.1
COc1cccc(CNC(=O)C(=O)NCC2CCCN2S(=O)(=O)c2cc(C)ccc2C)c1 (stereo unspecified)	-18	3	-15	-18	2.3	2	-0.8	-5	6	-0.4
CN1CCN(C(=O)CSc2nc(-c3cccs3)cc(-c3cccs3)c2C#N)CC1	-40	45	nt	nt	nt	9	0.1	37	26	0.5
O=C(COC(=O)CNC(=O)c1cc(Cl)cc([N+](=O)[O-])c1)NC(=O)NCc1ccco1	1	nt	-5	6	-3.9	0	-0.1	1	nt	0.0
O=C1N(Cc2cccnc2)C[C@@H]2C[C@@H](c3ccccc3C(F)(F)F)N3CCC[C@@]123	-10	-10	-2	0	3.9	-5	2.4	nt	9	0.6
O=C(CCN1C(=O)c2ccccc2S1(=O)=O)Nc1nc2c(s1)CCCC2	-3	44	nt	nt	nt	9	0.8	-5	2	-0.5
COCCCNC(=O)CN(c1cc(Cl)cc(Cl)c1)S(C)(=O)=O	3	-6	8	-3	-4.5	-2	-8.2	-1	-1	1.0
COc1ccc(NC(=O)CC2C(=O)N(c3cccc(OC)c3)C(=O)N2C2CCCCC2)cc1 (stereo unspecified)	3	0	nt	nt	nt	8	-1.8	46	-8	-0.5
O=C(NCc1ccco1)c1cc([N+](=O)[O-])ccc1N1CCCCC1	-5	11	-18	-15	-3.7	8	-3.8	-1	18	0.2
O=[N+]([O-])c1cccc(N=NN(CCO)c2cccc([N+](=O)[O-])c2)c1	3	7	nt	nt	nt	9	-1.7	-2	12	-0.6
O=C1CCCC2=C1C(c1cccs1)n1ncnc1N2 (stereo unspecified)	1	-9	nt	nt	nt	nt	-0.8	-7	-5	0.4
C#CCOCCOCCOCCNc1nc(N2CCN(C(=O)[C@H](CCCCN)n3cc(CN)nn3)CC2)nc(N2CCN(C(=O)[C@H](CCCN=C(N)N)n3cc(C(N)[C@H](C)CC)nn3)CC2)n1 (stereo partly specified)	-5	nt	6	10	7.2	4	0.8	0	nt	0.0
COc1cnc(-c2ccccc2)nc1Oc1ccc(Cl)cc1C	1	-17	-1	2	1.2	6	-0.2	-3	20	1.4
Cc1ccc(C)c(CN2CCCNC2=O)c1	3	12	nt	nt	nt	-14	2.4	-5	-10	-0.1
COc1ccc2nc(NC(=O)C3=NN(c4ccccc4)C(=O)CC3)sc2c1	0	9	-4	-2	0.4	6	0.3	-7	7	-0.1
O=C1CCCC(O)=C1C=Nc1ccc2c(c1)oc1ccccc12	-5	20	nt	nt	nt	1	-1.2	-15	-5	1.3
O=C(O)c1ccc(/C=C2\SC(=S)N(Nc3ccccc3)C2=O)cc1	16	11	5	0	2.9	91*	3.0	61	-12	-6.1
CS(=O)(=O)c1cccc(NC(=O)C2CCCN2S(=O)(=O)c2ccc(F)cc2)c1 (stereo unspecified)	6	3	2	-1	-1.1	-4	-1.3	2	-1	-0.7
CC(NC(=O)/C=C/c1ccc(Br)cc1)c1ccccc1 (stereo unspecified)	-3	-7	nt	nt	nt	nt	-1.7	2	4	0.5
Nc1c(N(Cc2ccccc2)C(=O)COc2ccc(F)cc2)c(=O)[nH]c(=O)n1Cc1ccccc1	7	3	-2	-11	-1.3	-4	1.2	0	-6	2.4
CC(=O)c1c(N2CCN(Cc3ccc4c(c3)OCO4)CC2)nc(=S)n(-c2ccccc2)c1C	21	0	4	-8	-2.1	-9	1.5	-15	5	-0.4
NCCCNC(=O)c1cc2ccccc2[nH]1	3	-5	nt	nt	nt	-10	-2.3	-12	-7	0.4
c1ccc(C2CCC(N3CCNCC3)CC2)cc1 (stereo unspecified)	-6	-1	5	2	2.3	-9	-2.4	-3	9	-0.3
COc1ccc(-n2nc3c(c2NC(=O)CCCCl)CSC3)cc1	4	8	1	8	-5.4	1	2.0	-1	-7	1.0
O=C(Oc1cc(-c2ccccc2)no1)c1ccc(Cl)cc1	-4	5	nt	nt	nt	2	-1.6	nt	-15	-0.5
N#Cc1cc(N2CCOCC2)nc2ccccc12	1	-9	-3	-8	3.1	14	-0.3	-37	-2	-3.3
O=[N+]([O-])c1cc(-c2csc(NCCc3nc4cc(C(F)(F)F)ccc4n3CCCO)n2)ccc1Cl	7	5	-3	-4	-2.1	-8	-2.1	-2	-8	1.0
O=C(COC(=O)c1cc([N+](=O)[O-])ccc1N1CCOCC1)Nc1ncc(Cl)cc1Cl	-17	-3	3	8	8.2	-3	-1.3	-5	8	-0.6
CCCN(CC(=O)Nc1ccc(F)c(F)c1F)C(=O)c1cc([N+](=O)[O-])ccc1N1CCOCC1	-1	-6	3	10	-1.6	-2	2.3	0	3	0.8
C=CCn1c(SCc2nnc(-c3ccccc3)o2)nnc1C(O)c1ccccc1 (stereo unspecified)	-13	-16	nt	nt	nt	3	-2.6	-1	-7	1.1
O=c1c(Cc2c(F)cccc2Cl)c(O)ccn1CCc1c[nH]c2ccccc12	2	10	-18	-19	-0.4	1	1.1	nt	-2	0.1
Clc1ccccc1Cn1c(/C=C/c2ccco2)nc2ccccc21	0	28	nt	nt	nt	-6	5.4	nt	20	0.4
Cc1cnc(NC(=O)/C=C/c2ccc(Br)o2)s1	1	-2	9	8	3.8	28	6.9	-15	-5	-1.1
Cc1cc(C)c2c(N)c(C(=O)NNC(=O)c3ccccc3)sc2n1	1	-3	5	0	-2.2	2	-7.1	21	24	-0.1
Cc1cccc(N(C)C(=O)c2cc3c(=O)[nH]c4ccc(C)cc4c3s2)c1	-24	20	8	4	7.4	9	-2.4	nt	37	-0.9
NS(=O)(=O)c1ccc(CCNC(=O)CN2CCCCC2)cc1	2	6	12	8	0.3	-3	0.6	-2	-5	0.3
COc1ccc(S(=O)(=O)N/N=C(/C)c2cccc(NC(=O)c3ccccc3Cl)c2)cc1	11	11	nt	nt	nt	nt	0.5	nt	7	0.4
O=C(/C=C/c1c(F)cccc1Cl)NCc1ccco1	-7	6	-13	-13	1.4	-4	-1.0	-1	3	-1.2
O=C(Nc1ccccc1F)c1ccc2c(c1)CCN2S(=O)(=O)c1ccccc1	3	-8	-10	3	2.4	2	3.0	1	1	0.5
O=C(Nc1ccc([N+](=O)[O-])cc1)c1cncc(Br)c1	-5	-10	-2	0	-0.2	2	4.4	-2	5	0.3
Cc1ccc(NC(=O)CN(C)C(=O)Cn2cc(C(F)(F)F)ccc2=O)cc1	2	-2	nt	nt	nt	3	-7.6	0	5	0.1
CCOC(=O)c1ccc(NC(=O)C2C3CCCCC32)cc1 (stereo unspecified)	-2	-3	-4	-6	-7.7	1	-1.4	-3	11	?
O=C(Nc1cccnc1Cl)c1cc(-c2cccc(O)c2)on1	1	4	2	6	-2.1	-3	0.1	nt	9	-3.1
COC(=O)[C@@H](NC(=O)NC1CCN(Cc2ccccc2)CC1)C(C)C	3	nt	nt	nt	nt	-3	-1.3	-5	3	0.9
COc1ccc2oc(C(=O)NCCN3CCOCC3)c(C)c2c1OC	-3	4	2	12	0.7	4	2.7	-11	-6	0.5
Cc1cc(C(=O)O)oc(=O)c1	5	7	23	16	-2.5	-2	1.6	-5	-11	0.3
CCOC(=O)Nc1cccc(C(=O)O)c1	2	26	nt	nt	nt	-6	1.7	-10	1	0.1
CN(c1cccc(NC(=O)c2cccc([N+](=O)[O-])c2)c1)S(C)(=O)=O	-5	-7	4	20	1.3	-2	-0.1	-26	5	-0.1
CCN(CC)C(=O)C1CCN(c2ncnc3c2cnn3-c2ccc(C)cc2C)CC1	9	2	nt	nt	nt	5	-8.1	nt	2	0.1
CCOC(=O)N1CCC(NCCNC(=O)c2ccccc2Cl)CC1	4	4	nt	nt	nt	-5	4.6	-6	9	-0.8
CC(C)Oc1ccc(CCC(=O)NNC(=O)CCC(=O)O)cc1	5	2	1	0	15	-2	1.8	-2	1	-0.1
Cc1ccc(OCC(=O)Nc2ccccc2C(=O)N2CCCC2)cc1	-1	-14	3	5	1.8	-7	0.0	-2	2	0.3
CCCC(CCC(=O)Nc1ccc(S(N)(=O)=O)cc1)C(=O)O (stereo unspecified)	5	3	nt	nt	nt	-2	-0.5	nt	-2	-0.7
COc1ccc(S(=O)(=O)N2CCCCC2)cc1NC(=O)C1CC(=O)N(Cc2ccco2)C1 (stereo unspecified)	-3	nt	-1	14	-2.9	-4	7.3	-1	nt	0.4
CCN(CC(=O)NCCC1=CCCCC1)S(=O)(=O)c1ccccc1	1	-4	-9	-6	-1.0	0	3.3	nt	1	-0.2
COc1cccc(CN(C)C(=O)CC2C(=O)NCCN2C2Cc3ccccc3C2)c1 (stereo unspecified)	-4	-5	-6	-4	0.1	nt	-5.8	-22	17	-0.7

Later entries:
SMILES	Beta2AR agonist	Calb FLC	Ecoli rRNA inh	Ecoli rRNA inh OD600	Ecoli rRNA inh RFP	Beta cell apopt	LANA-H2A inh	ALR H2O2 inh	T cruzi repl	A1 inh
C[C@H](CO)N1C[C@H](C)[C@@H](CN(C)Cc2ccc3c(c2)OCO3)Oc2c(NC(=O)C3CC3)cccc2C1=O	1	nt	-4	-2	-2.8	-9	-6.3	-1	nt	0.1
COc1cc(CNCCc2ccccc2)ccc1OCc1ccc(Cl)nc1	-8	2	3	-6	-5.1	3	-2.6	4	51	0.3
Cc1ccc(NC(=O)c2ccc(S(=O)(=O)NCC3CCCO3)cc2)cc1 (stereo unspecified)	-4	-16	nt	nt	nt	4	-0.9	-5	-8	1.7
O=C(NCc1ccccc1)c1ccc(OCC2CCCO2)cc1 (stereo unspecified)	-3	-29	5	9	-4.1	-1	2.6	-5	5	-0.4
COc1ccc(Nc2cc(C(=O)NCc3ccco3)c3ccccc3n2)cc1	nt	-7	nt	nt	nt	-4	-0.3	-2	3	-0.5
C/C(=N\NC(=O)C1CC1)c1ccc(OC(F)F)cc1OC(F)F	-22	2	1	-1	7.4	nt	0.9	3	-7	-1.3
COc1ccc(C(=O)N/N=C(\C)c2ccccn2)cc1OC	5	0	-6	6	0.3	98*	-1.7	1	18	-1.4
C=CCNC(=O)COC(=O)c1ccc(C)c(NC(=O)c2ccco2)c1	-6	36	19	13	4.6	3	-3.7	-18	-3	0.4

Assay outcomes from PubChem.
